D2 agonist = human D2 receptor agonism in beta-arrestin assay; P14416; 0.084% of 360,000 active; DiscoveRx PathHunter D2 beta-arrestin, luminescence, 90 min; 100% = 57 uM dopamine signal; activation, % (test concentration not listed); in the data active = activation above about 40%; inconclusive = about 15% to 40%; inactive = below about 15%; further: compound concentration not given in the record; the text of the record calls up to 30% inactive
Target sequence (P14416 whole entry, looked up): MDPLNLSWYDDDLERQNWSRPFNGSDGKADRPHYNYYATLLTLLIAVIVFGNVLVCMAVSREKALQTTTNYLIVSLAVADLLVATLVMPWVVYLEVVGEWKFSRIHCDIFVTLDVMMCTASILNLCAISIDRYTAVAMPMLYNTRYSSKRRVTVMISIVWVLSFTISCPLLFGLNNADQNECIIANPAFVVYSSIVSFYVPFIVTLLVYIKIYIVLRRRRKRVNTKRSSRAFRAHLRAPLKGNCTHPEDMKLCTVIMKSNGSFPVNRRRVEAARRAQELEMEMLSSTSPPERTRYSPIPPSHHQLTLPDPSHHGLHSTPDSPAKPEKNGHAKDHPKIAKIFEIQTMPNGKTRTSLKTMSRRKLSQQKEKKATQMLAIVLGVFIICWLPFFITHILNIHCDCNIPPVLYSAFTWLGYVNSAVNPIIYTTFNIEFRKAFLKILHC
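DiscoveRx PathHunter D2 beta-arrestin cells (2,100/well) attached overnight, then compound-stimulated 90 min at 37 C in HBSS/10 mM HEPES/0.1% Tween-20 buffer; beta-galactosidase complementation read by luminescence after 1 h at ambient temperature. Dopamine 57 uM final (EC100) as control.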
Six1-Eya2 blk = inhibitors of human Six1/Eya2 interaction. AlphaScreen GST-Six1/His-Eya2 binding, biochemical; stronger effect = lower value; control for the full effect not named in the record. AID 651725. 0.56% of 360,000 active. activity change, % (test concentration not listed); in the data active = activity change below about -65%; inconclusive = about -30% to -65%; inactive = above about -30%; further: on the % scale 0 is the no-effect control and ±100 the full control effect; compound concentration not given in the record
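GST-Six1 + His-Eya2 (5X stock: 250/500 nM); Tris pH 8.0, 300 mM NaCl, 0.05% BSA, 0.02% Tween 20; GSH donor/Ni acceptor beads; 1 h 37 °C dark; AlphaScreen readout.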
TRPML1 agonist = activates the human TRPML1 channel; activation, % (concentration not given with the values); TRPML1-expressing cells, Ca2+ dye fluorescence, FDSS; host cell line not named in the record; reference of the full effect not given here; Q9GZU1; 0.12% of 410,000 active; in the data active = activation above about 50%; inconclusive = about 30% to 50%; inactive = below about 30%; further: 0% is about no effect; the text of the record puts the active cut at 80%
Target sequence (Q9GZU1 whole entry, looked up): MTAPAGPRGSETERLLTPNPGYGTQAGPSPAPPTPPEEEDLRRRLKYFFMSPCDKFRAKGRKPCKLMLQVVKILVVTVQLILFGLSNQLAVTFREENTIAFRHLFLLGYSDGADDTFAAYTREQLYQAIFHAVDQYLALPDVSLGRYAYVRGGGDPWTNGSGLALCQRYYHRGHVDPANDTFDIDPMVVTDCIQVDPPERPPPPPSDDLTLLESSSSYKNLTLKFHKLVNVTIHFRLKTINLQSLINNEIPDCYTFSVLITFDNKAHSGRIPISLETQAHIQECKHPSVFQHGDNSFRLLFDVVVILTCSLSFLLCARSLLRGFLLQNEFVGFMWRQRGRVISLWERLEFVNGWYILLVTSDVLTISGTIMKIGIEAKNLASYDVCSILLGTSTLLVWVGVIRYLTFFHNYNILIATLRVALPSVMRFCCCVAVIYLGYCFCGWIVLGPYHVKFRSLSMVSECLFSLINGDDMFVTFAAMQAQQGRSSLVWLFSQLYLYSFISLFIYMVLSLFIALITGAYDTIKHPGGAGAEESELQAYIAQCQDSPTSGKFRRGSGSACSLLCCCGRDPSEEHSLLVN
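In this qHTS format, compounds were pin-transferred onto Ca8-dye-loaded TRPML1-DL cells induced with Tet overnight, and intracellular Ca2+ fluorescence was recorded kinetically for 110 s after a 10 s baseline. A subsequent 4uM final 54-4 (EC80) addition followed by a second 110 s read served as the antagonist phase.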
TRPML1 blocker = human mucolipin-1 channel inhibition | TRPML1-inducible cells, Ca2+ dye fluorescence, FDSS; stronger effect = lower value; inhibition of EC80 agonist-evoked calcium signal | activity change, negative = inhibition, % (no concentration beside the values) | 0.02% of 390,000 active | AID 624415; in the data active means activity change below about -50%; inconclusive means about -30% to -50%; inactive means above about -30%;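 further: stimulus is agonist 54-4 at its EC80 concentration; on the % scale 0 is the no-effect control and ±100 the full control effect; compound concentration not given in the record; the text of the record puts the active cut at -80%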
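Calcium fluorescence in TRPML1-DL cells induced overnight with Tet: a 110 s read after compound pin addition, then a 110 s antagonist read after challenge with 54-4 at 4 uM final (EC80).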
PINK1 expr mod = changes PINK1 expression; PINK1 immunofluorescence, high-content cytometry, 24 h; Potency, µM (series often up to 76.6 µM), inactives show at the top dose activation (PINK1 increase), most hits filed as activators; 0.2% of 410,000 active; active = well fitted activation curve with a large enough effect; inconclusive = small, poorly fitted or top-dose-only effect; inactive = flat fitted curve, though single readings scatter; cell line not stated here;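 further: potency means the concentration at half of the fitted maximal effect; % of control where 0% means no effect; nearly all actives have a fitted effect of over 65% in size; a mitochondrial uncoupler was the plate control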
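Decision-based qHTS: stable cells, 24 h exposure to five compound concentrations, CCCP as control. Fixed cells stained for PINK1 plus nuclear, mitochondrial and cell markers, cytometer read.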
CtBP-E1A blk = blocks the CtBP interaction with E1A. AlphaScreen GST-E1A/His-CtBP binding, 1536-well; stronger effect = lower value; control for the full effect not named in the record. activity change, % (concentration not given with the values). 0.49% of 340,000 active. AID 651724; in the data active means activity change below about -65%; inconclusive means about -30% to -65%; inactive means above about -30%; further: on the % scale 0 is the no-effect control and ±100 the full control effect
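In 5 uL wells, 23 nL compound meets equimolar GST-E1A and His-CtBP (5X stock 125 nM each) for 2 h, 37 °C. Beads (5X, 50 ug/mL) then 1 h, 37 °C, dark.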
Active calls of the source: *; ? = inconclusive; nt = not tested or not shown; & = joins results of further samples; [ ] = remark or other dose.

SMILES | D2 agonist | Six1-Eya2 blk | TRPML1 agonist | TRPML1 blocker | PINK1 expr mod | CtBP-E1A blk
COc1cc(CNc2ccc(N3CCCC3)cc2)ccc1OCc1ccccc1 | 3.5 | ? | -0.8 | -16 | 3.4% | ?
Cc1cc(C(=O)NN)c2cc(Br)ccc2n1 | -1.2 | 0 | -0.4 | 6 | 9.3% | 13
Cc1ccc(Nc2nnc(SCC(=O)N(C)C3CCS(=O)(=O)C3)s2)cc1 (configuration not stated) | -3.1 | -27 | -0.4 | 7 | 1.2% | 3
CC1=CS(=O)(=O)CC1Sc1nc2ccccc2[nH]1 (configuration not stated) | -1.1 | 6 | 0.3 | -1 | -2.7% | 2
Cc1ccc([N+](=O)[O-])cc1N/C=C1\CCc2ccccc2C1=O | 0.1 | -9 | 1.4 | -4 | 9.6% | -16
COc1ccc(CCNC(=O)CSc2ccc(Br)cc2)cc1OC | -1.7 | 4 | 0.4 | -11 | 0.0% | 8
Cc1ccc(/C=N/NC(=O)C(O)c2ccccc2)o1 (configuration not stated) | 1.6 | -4 | 0.6 | -1 | -0.4% | -3
COC(=O)c1ccc(C(=O)N2CCCC(C)(C(=O)NS(=O)(=O)C3CC3)C2)cc1 (configuration not stated) | -2.5 | 9 | -0.4 | nt | -0.4% | 5
CC1(C(=O)NS(=O)(=O)C2CC2)CCCN(C(=O)c2ccccc2C(F)(F)F)C1 (configuration not stated) | 3.0 | 0 | -0.5 | nt | 0.7% | 12
COc1ccc(C(=O)CSc2c(C(C)C)cnc3c2c(=O)n(C)c(=O)n3C)cc1 | nt | nt | 3.6 | 3 | 0.5% | nt
Cc1ccc(S(=O)(=O)N(C)C)cc1NC(=O)CSc1ncn[nH]1 | -1.8 | 2 | -0.6 | -2 | -0.4% | -3
Cn1c(=O)n(CC(=O)Nc2ccccc2)c2ccccc21 | -1.3 | 2 | -0.7 | -4 | -2.5% | 9
CC(C)(C)c1ccc(C(=O)NCCN2CCCC2)cc1 | -2.7 | 4 | 0.4 | -12 | 0.7% | nt
CCN(CC(=O)Nc1ccccc1OC)C(=O)CC1CCCC1 | -3.7 | 7 | 0.1 | 0 | -1.8% | 5
C=CCn1c(=O)c(C(=O)Nc2ccccc2O)c(O)c2ccccc21 | -1.6 | -1 | 0.3 | 4 | 8.4% | 4
COC(=O)c1ccc(OCC(=O)c2ccccc2OC)cc1 | -0.7 | 0 | 1.4 | 23 | -1.5% | 2
COc1ccc(C(CC(=O)Nc2ccc(C)c(C)c2)N2Cc3ccccc3C2=O)cc1OC (configuration not stated) | nt | nt | 2.4 | 8 | -5.4% | nt
O=S(=O)([N-]c1nc2ccccc2nc1-n1cc[n+](Cc2ccccc2)c1)c1ccc(Br)cc1 | -1.1 | -1 | 0.3 | 25 | 2.5% | -7
COc1cc(OC)c(OC)cc1/C=N/Nc1nc2ccccc2[nH]1 | 15 | 0 | 0.3 | -22 | -1.3% | nt
CC(=O)N1CCN(C(=O)c2ccc3c(c2)OCCO3)CC1 | -2.0 | 6 | -0.5 | 11 | 0.3% | 3
COc1cc(/C=C(\C#N)c2ccccn2)ccc1OCc1ccccc1Cl | -4.5 | 5 | 0.7 | -9 | 9.8% | -8
COCCn1c(=O)c2c(nc3n2CC(C)CN3CCc2ccccc2)n(C)c1=O (configuration not stated) | -0.8 | -14 | 0.1 | 18 | -0.7% | -19
CCOC(=O)C1=C(C)NC2=C(C(=O)CC(c3ccc(OC)c(OC)c3)C2)C1c1ccc(C)o1 (configuration not stated) | -2.1 | -15 | -0.3 | 37 | 0.7% | -4
CCOC(=O)c1nccnc1C(=O)Nc1cccc(C(F)(F)F)c1 | -0.4 | 8 | 1.5 | -13 | 2.3% | 8
COC(=O)c1cccc(NC(=O)CN2C(=O)c3ccccc3C2=O)c1 | -4.5 | -2 | -0.1 | 1 | 1.0% | -6
(cont.)
SMILES | D2 agonist | Six1-Eya2 blk | TRPML1 agonist | TRPML1 blocker | PINK1 expr mod | CtBP-E1A blk
COc1ccc(NC(=O)c2c(SC)nsc2SC)cc1 | 0.8 | 8 | 0.1 | -16 | 17% | -2
O=C(NCCc1ccccc1)c1ccc(=O)oc1 | -4.9 | 1 | -0.2 | 28 | -0.8% | 6
CCn1c(=O)n(CC)c2cc(N3CCCC3)c(NC(=O)c3ccc(F)cc3)cc21 | -5.6 | 3 | -0.3 | -6 | -0.9% | -3
O=C(N/N=C/c1ccco1)c1cc(-c2cccs2)[nH]n1 | 2.3 | -9 | 0.1 | 3 | -1.2% | -8
COc1ccc(CNC(=O)c2ccccc2NS(C)(=O)=O)cc1 | -2.2 | 4 | 0.6 | -3 | -2.4% | 1
Nc1nc(N2CCCCC2)c(C=O)c(N2CCCCC2)n1 | -1.5 | -9 | -0.6 | -12 | 3.6% | -26
Cc1ccccc1OCCn1cc(C(=S)N2CCCC2)c2ccccc21 | -8.7 | -24 | 1.4 | -1 | 0.6% | -23
CCCN(CCC)C(=O)CSc1nnc2cc(C)c3ccccc3n12 | nt | nt | -0.8 | -3 | 12% | nt
CCOC(=O)c1nc(NCc2ccccc2)sc1C | -0.4 | -8 | 0.5 | 2 | 1.5% | -6
CC(C)CCNC(=O)C(c1ccc(O)cc1)N(C(=O)C1COc2ccccc2O1)c1cccc(O)c1 (configuration not stated) | -1.2 | -4 | 3.1 | 0 | 0.5% | -13
Cc1cc(C)c(OCCCCn2cnc3ccccc3c2=O)c(C)c1 | 3.1 | 0 | 1.7 | 3 | ? | 8
CC1CC(C)CN(CC(=O)Nc2ccc(S(N)(=O)=O)cc2)C1 (configuration not stated) | -2.8 | 4 | -0.3 | -3 | -3.9% | 16
c1coc(-c2ncc[nH]2)c1 | 0.4 | 6 | -0.3 | 7 | 2.3% | -14
Cc1ccc(CN2CCN(C3CCN(C(=O)OC(C)(C)C)CC3)C(=O)C2=O)cc1 | nt | nt | 0.0 | -13 | -0.6% | nt
CCn1c(SCC(=O)Nc2ccc(OC)c(OC)c2)nnc1-c1cnccn1 | -2.0 | -3 | -0.8 | -8 | -1.6% | 1
CCOC(=O)C1=C(c2ccccc2)NC(=O)NC1c1cc(Cl)c(O)c(OC)c1 (configuration not stated) | 4.1 | -2 | 0.7 | 5 | -1.4% | -1
Cc1cc(C)cc(N2CC(C(=O)NC3CCCCC3)CC2=O)c1 (configuration not stated) | -1.6 | 2 | 0.4 | -2 | 1.1% | 3
O=C(c1ccccc1)N(c1ccccc1)c1ccccc1O | -1.1 | -3 | 1.9 | -8 | 5.7% | -1
COc1ccc2[nH]c(C(=O)O)c(NS(=O)(=O)c3ccc(C)cc3C)c2c1 | 2.3 | -7 | 0.6 | -4 | 1.0% | 0
CCNCc1cc2cc(C)ccc2[nH]c1=O | -2.6 | -1 | -0.1 | -1 | -2.2%[38.3 µM] | -3
N#Cc1c(NC(=O)c2ccco2)sc2c1CCC2 | -5.0 | -1 | 0.4 | -12 | -0.4% | -7
NCc1csc(Nc2cc(Oc3ccccc3)ncn2)n1 | -3.7 | ? | 0.0 | nt | 2.1% | -77*
CC(=O)N1c2ccccc2CC1C(=O)N1CCN(c2cccc(Cl)c2)CC1 (configuration not stated) | nt | nt | 0.5 | -14 | 1.5% | nt
Cc1ccc(C2=NN3C(C(=O)c4ccccc4)Oc4ccccc4C3C2)cc1 (configuration not stated) | -3.1 | -1 | 3.4 | -14 | -1.4% | -10
CCCSc1ncc(Cl)c(C(=O)N(Cc2cccc(Cl)c2)C2CCS(=O)(=O)C2)n1 (configuration not stated) | nt | nt | 1.1 | 4 | -0.1% | nt
Later entries.
SMILES | D2 agonist | Six1-Eya2 blk | TRPML1 agonist | TRPML1 blocker | PINK1 expr mod | CtBP-E1A blk
Cc1ccc(CNC(=O)Nc2ccc3c(c2)N(C)C(=O)CS3)cc1 | -3.6 | -8 | 1.6 | 3 | 3.5% | -1
Cc1nc(NC(=O)CSc2nnc(C3CC3)n2N)c(Cl)cc1Cl | -1.9 | 0 | 1.8 | 1 | 0.5% | 14
C[C@@H]1Cn2cnc(C(=O)Nc3ccccc3)c2C(=O)N1 | -1.5 | -1 | nt | nt | -1.0% | -10
[O-][n+]1onc2c1CCc1[nH]c(-c3ccccc3)nc1-2 | -4.2 | -24 | -0.2 | -13 | 0.9% | -12
c1ccc2cc(C3CCCCC3)ncc2c1 | -3.5 | 15 | -0.5 | 23 | 7.6% | 14
CCOc1ccc(NC(=S)NC23CC4CC(CC(C4)C2)C3)cc1 | 3.4 | 23 | 1.2 | 2 | ? | 5
COc1cc(SC)ccc1C(=O)OCC(=O)NC1CC1 | -0.6 | -23 | 0.3 | 39 | 1.4% | 3
CC(C)(C)C(=O)COC(=O)CNC(=O)c1ccc(Oc2ccccc2)cc1 | -9.4 | 8 | -0.3 | 29 | -0.1% | 6
C=CCn1c(SCC(=O)Nc2ccccc2CC)nnc1-c1ccncc1 | -3.5 | 4 | -0.1 | 8 | 4.3%[38.3 µM] | 0
O=C(CCn1cnc2ccccc2c1=O)Nc1ccc2c(c1)OCCO2 | -2.4 | 1 | -0.4 | 4 | -1.5% | 1
CCOc1ccc(C(=O)Nc2cccc([N+](=O)[O-])c2)cc1Br | 1.8 | 8 | 2.7 | 31 | 9.1% | 0
COc1ccc(C(C(C(=O)c2cccs2)N2CCOCC2)N2CCOCC2)cc1OC (configuration not stated) | -2.8 | 1 | 2.3 | 26 | -1.0% | 1
CCN(C(=O)CSc1nnc(C)n1-c1cccc(C)c1)C1CCS(=O)(=O)C1 (configuration not stated) | 7.5 | 2 | 1.4 | 11 | 0.0% | 1
CCC/C=C1/CCCOC(C(=O)NCc2ccc(C)o2)(C(F)(F)F)C1 (configuration not stated) | 8.0 | 12 | 1.1&0.3 | 11&-14 | 4.9% | -25

Some of the entries so far, as a markdown table:
| SMILES | D2 agonist | Six1-Eya2 blk | TRPML1 agonist | TRPML1 blocker | PINK1 expr mod | CtBP-E1A blk |
| --- | --- | --- | --- | --- | --- | --- |
| CCOc1ccc(NC(=S)NC23CC4CC(CC(C4)C2)C3)cc1 | 3.4 | 23 | 1.2 | 2 | ? | 5 |
| COc1cc(SC)ccc1C(=O)OCC(=O)NC1CC1 | -0.6 | -23 | 0.3 | 39 | 1.4% | 3 |
| CC(C)(C)C(=O)COC(=O)CNC(=O)c1ccc(Oc2ccccc2)cc1 | -9.4 | 8 | -0.3 | 29 | -0.1% | 6 |
| C=CCn1c(SCC(=O)Nc2ccccc2CC)nnc1-c1ccncc1 | -3.5 | 4 | -0.1 | 8 | 4.3%[38.3 µM] | 0 |
| O=C(CCn1cnc2ccccc2c1=O)Nc1ccc2c(c1)OCCO2 | -2.4 | 1 | -0.4 | 4 | -1.5% | 1 |
| CCOc1ccc(C(=O)Nc2cccc([N+](=O)[O-])c2)cc1Br | 1.8 | 8 | 2.7 | 31 | 9.1% | 0 |
| COc1ccc(C(C(C(=O)c2cccs2)N2CCOCC2)N2CCOCC2)cc1OC (configuration not stated) | -2.8 | 1 | 2.3 | 26 | -1.0% | 1 |
| CCN(C(=O)CSc1nnc(C)n1-c1cccc(C)c1)C1CCS(=O)(=O)C1 (configuration not stated) | 7.5 | 2 | 1.4 | 11 | 0.0% | 1 |
| CCC/C=C1/CCCOC(C(=O)NCc2ccc(C)o2)(C(F)(F)F)C1 (configuration not stated) | 8.0 | 12 | 1.1&0.3 | 11&-14 | 4.9% | -25 |
